Source: PubChem
Calb biofilm kill: mixture kills Candida albicans biofilm cells | C. albicans biofilm persisters + clotrimazole, fluorescence viability; primary screen in compound mixtures of four per well | inhibition, % at 7.6 µM | 120,000 tested, 0.02% active;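 active = inhibition above 30.3% in the primary screen of four-compound pools, then above 30% when the compound was retested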;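 also: compounds exposed to preformed 24 h biofilms for 48 h; the number belongs to the whole pool; some results filed as inactive read as strong as hits; inactives centre near 12; 0% = biofilm with clotrimazole alone and 100% = kill control; retested singly at about 60 µM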
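Assay system: C. albicans biofilms / Medium: RPMI/MOPS medium, pH 7.0 / Schedule: biofilm formation 24 h, compound exposure 48 h, 37 °C / Measured by: Alamar Blue fluorescence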
Active calls of the source: *.

cpd	SMILES	Calb biofilm kill
1	CCN(C(=O)COC(=O)/C=C/c1cccc([N+](=O)[O-])c1)c1ccccc1	7.7
2	C=CC[n+]1c(C)csc1Nc1ccc(C(=O)O)cc1	10.0
3	Cc1ccc2c(c1)[C@@H](O)C[C@@H](C)N2N=O	15.1
4	CC(=O)N/N=C(\C)c1cccc(C(F)(F)F)c1	17.9
5	CCC(=O)N(Cc1cc(=O)[nH]c2ccccc12)c1ccccc1C	17.9
6	CN(C)CCn1c(N)nc2ccccc21	16.9
7	O=C(Nc1ccc(S(=O)(=O)NC2CCCCC2)cc1)c1ccco1	7.2
8	O=C(Nc1ccc(CN2CCOCC2)cc1)c1ccccc1F	13.4
9	COc1ccc(/C=N/NC(=O)c2ccc(NC(=O)c3cccc([N+](=O)[O-])c3)cc2)c(OC)c1	9.3
10	COc1ccc(NC(=O)CSc2ccccc2)c([N+](=O)[O-])c1	5.7
11	CC1CCCCC1NC(=O)COC(=O)c1c2c(nc3ccccc13)/C(=C/c1ccco1)CC2 (stereo not drawn)	11.3
12	Cc1cc(N=Cc2c(O)n(-c3cccc(Cl)c3)c(=O)c3ccccc23)no1	20.7
13	Cc1cc(/C=C(\C#N)C(=O)NCc2cccs2)c(C)n1-c1ccc([N+](=O)[O-])cc1	8.9
14	CC1CN(C(=O)COC(=O)c2c(Cl)cccc2Cl)CC(C)O1 (stereo not drawn)	-2.0
15	O=C(/C=C/c1cc2ccccc2o1)c1ccccc1O	9.1
16	COC(=O)c1cc(NC(=O)c2ccccc2)c(=O)oc1/C=C/Nc1ccc(Oc2ccccc2)cc1	16.0
17	COC(=O)/C=C1\SC(N2CCOCC2)=C(c2ccc(OC)cc2)C1=O	7.9
18	COc1ccccc1NC(=S)NCC1CCC(CNC(=S)Nc2ccccc2OC)CC1 (stereo not drawn)	22.6
19	Cc1ccc2nc(SCC(=O)Nc3cc(C(C)(C)C)nn3-c3ccccc3)[nH]c2c1	9.9
20	C=CCNC(=S)N/N=C(\C)c1cccc(NC(C)=O)c1	7.0
21	CCSc1nnc(NC(=O)Nc2cccc(C)c2)s1	19.3
22	O=C(O)c1ccc2c(c1)N(Cc1ccccc1)C(=O)c1ccccc1S2	23.2
23	O=c1oc2ccccc2n1Cc1ccccc1	3.0
24	O=C(NCc1cccc(Cl)c1)c1ccc2c(c1)SC1=NS(=O)(=O)CCN12	7.2
25	Cc1ccc(C)c(NC(=O)c2nc(Cl)ccc2Cl)c1	8.8
26	CCOC(=O)C(=CNNc1cccc(Cl)c1)C(=O)OCC	10.7
27	COC(=O)C1=C(C(=O)OC)C(c2cc([N+](=O)[O-])ccc2O)c2sc(=O)[nH]c2S1 (stereo not drawn)	12.9
28	O=C(CN1CCN(C(=O)C2COc3ccccc3O2)CC1)Nc1ccccc1 (stereo not drawn)	1.6
29	CCOC(=O)C(C)c1c(C(=O)c2ccc(C)nc2)c2ccccc2n1C (stereo not drawn)	11.4
30	CCCNC(=O)NC(=O)CSc1cccc(C(F)(F)F)c1	6.6
31	CCN(CC)S(=O)(=O)c1cccc(NC(=O)CSc2nnc(N)s2)c1	6.5
32	CCCCC(CCC(=O)O)(C(=O)OCC)c1csc(Nc2ccccc2)n1 (stereo not drawn)	-4.6
33	COc1ccc(/C=C/C(=O)Nc2c(C(=O)O)[nH]c3ccccc23)cc1OC	22.8
34	Cc1oc(-c2ccccc2Cl)nc1CN1CCCN(C(=O)c2ccco2)CC1	-8.9
35	Cc1[nH]c2ccccc2c1N=Nc1ccccc1C(=O)O	13.6
36	COc1ccc(/C=N/n2cncn2)cc1Cn1nc(C)c([N+](=O)[O-])c1C	28.4
37	O=C(NCCN1CCCC1)c1ccc(Cn2c(=S)[nH]c3ccc(Br)cc3c2=O)cc1	17.3
38	COc1cc(NC(=O)C/C(C)=N/NC(=O)c2cccc(O)c2)c(OC)cc1Cl	8.1
39	CN(C)CCCN(C(=O)c1ccco1)c1nc2ccc(Cl)cc2s1	13.2
40	CNC(=O)Cc1nc2ccccc2n1CC(=O)Nc1cc(C)cc(C)c1	13.3

Compounds above that contain fluorine (3):
cpd	SMILES	Calb biofilm kill
4	CC(=O)N/N=C(\C)c1cccc(C(F)(F)F)c1	17.9
8	O=C(Nc1ccc(CN2CCOCC2)cc1)c1ccccc1F	13.4
30	CCCNC(=O)NC(=O)CSc1cccc(C(F)(F)F)c1	6.6

Next compounds follow:
cpd	SMILES	Calb biofilm kill
41	CCOC(=O)c1ccc(NC(=O)CCn2nnc3ccccc32)cc1	6.1
42	CCSc1cc(C)nc2c(-c3ccccc3)cnn12	18.8
43	COc1cc(CNc2nnnn2C)ccc1OCc1c(F)cccc1Cl	14.4
44	COCCCn1c(=S)[nH]c(C)c(C)c1=O	22.2
45	O=C1CCCC/C1=C/NCc1ccc(F)cc1	12.5
46	Oc1c(Cl)cc(Cl)cc1/C=N/c1nc(-c2ccc(Cl)cc2)cs1	15.2
47	CC(=O)N1CCN(S(=O)(=O)c2cccc(C(=O)Nc3nccs3)c2)CC1	26.8
48	Cc1cc(C)nc(N2CCCC(C(=O)NCc3ccccc3F)C2)n1 (stereo not drawn)	6.7

The closing 4 records of the section before open the next one.
cpd	SMILES	Calb biofilm kill
45	O=C1CCCC/C1=C/NCc1ccc(F)cc1	12.5
46	Oc1c(Cl)cc(Cl)cc1/C=N/c1nc(-c2ccc(Cl)cc2)cs1	15.2
47	CC(=O)N1CCN(S(=O)(=O)c2cccc(C(=O)Nc3nccs3)c2)CC1	26.8
48	Cc1cc(C)nc(N2CCCC(C(=O)NCc3ccccc3F)C2)n1 (stereo not drawn)	6.7
49	CCOC(=O)c1cc(CC)sc1/N=C/C1C(=O)CC(C)(C)CC1=O	9.4
50	CCOC(=O)CC1(C)SC(NC(C)=O)=NN1C(C)=O (stereo not drawn)	21.1
51	CCSC1=NCCN1C(=O)Cc1ccc(-c2ccccc2)cc1	12.3
52	C=CCN(c1cccc(C(F)(F)F)c1)S(=O)(=O)c1cccc(C(=O)OCC(=O)NC(N)=O)c1	5.5
53	COc1cc(-n2c(=O)c3ccccc3n(CC(=O)c3ccc(F)cc3)c2=O)cc(OC)c1OC	34.7
54	CCN(CC)c1ccc(/C=N/NC(=O)c2ccccn2)cc1	26.2
55	Cc1ccc(C)c2c1cc(C)c1nnc(SCC(=O)Nc3cccc(C(=O)O)c3)n12	14.1
56	CC(C)(C)OC(=O)NC(CO)c1cn([C@@H](Cc2cc3ccccc3[nH]2)C(=O)N2CCN(C(=O)OC(C)(C)C)CC2)nn1 (stereo partly drawn)	13.1
57	Cc1cccc(C)c1NC(=S)NCCSc1ccc(Cl)cc1	4.1
58	CC1=CCC(C(=O)O)C(C(=O)Nc2cccnc2)C1 (stereo not drawn)	16.4
59	COc1cccc(CNc2ccc(N3CCC(C)CC3)cc2)c1OC	10.7
60	COc1ccc(CN(C(=O)c2cnccn2)C(C(=O)Nc2ccc(F)cc2)c2ccccc2)cc1 (stereo not drawn)	8.2
61	COc1ccc(S(=O)(=O)N2CCCCC2)cc1NC(=O)c1ccc([N+](=O)[O-])o1	8.9
62	CN(C)c1nc(N(C)C)nc(N(C#N)CN2C(=O)c3ccccc3S2(=O)=O)n1	4.0
63	CCc1nnc(NS(=O)(=O)c2ccc(N/C=C/C(=O)c3ccc(OC)cc3)cc2)s1	7.4
64	CCOc1ccc(NC(=O)NNC(=O)c2ccc(Cl)cc2Cl)cc1	9.2
65	CC1CCN(C(=O)CNC(=O)c2cccc(OC(F)F)c2)CC1	17.5
66	CCCCN(C(=O)NC(=O)Nc1ccc(C)cn1)S(C)(=O)=O	7.9
67	CC(=O)Oc1ccccc1C1=NN(C(C)=O)C(c2ccccc2)C1 (stereo not drawn)	14.6
68	O=C(CN1CCOCC1)Nc1ccc2c(c1)CCC2	16.5
69	CCOC(=O)CCCNC(=O)CCNC(=O)c1ccc(OCCC(C)C)cc1	14.7
70	O=S(=O)(NC1CCCCC1Sc1ncccn1)c1ccc(Cl)cc1 (stereo not drawn)	-2.8
71	COCCNc1nc2nonc2nc1NC(C)c1ccccc1Cl (stereo not drawn)	3.0
72	CC(=O)Nc1cc(C(=O)N2CCc3ccccc3C2)ccc1Sc1ccc(F)cc1	17.7
73	N#Cc1ccc(COC(=O)c2ccccn2)cc1	9.0
74	Brc1cc2c(cc1/C=N/Nc1nc(N3CCOCC3)nc(N3CCOCC3)n1)OCO2	1.2
75	CCC(C)C(=O)Nc1nc2ccc(OC)cc2s1 (stereo not drawn)	32.7
76	Cc1cccc(N2C(=O)CS/C2=N\NC(=O)c2cccnc2)c1C	5.2
77	Cc1ccccc1/C=N/n1c(-c2ccccn2)n[nH]c1=S	16.7
78	COc1cccc(/C=C/C(=O)N2CCN(c3n[nH]c(=O)[nH]c3=O)CC2)c1OC	18.4
79	Nc1n[nH]c(N)c1N=Nc1ccc(F)cc1	13.2
80	O=C1N/C(=N\N=C\c2cccs2)SC1Cc1ccc(Cl)cc1Cl (stereo not drawn)	19.2
81	COc1ccccc1CNC(=O)C(=O)NCC1CCCO1 (stereo not drawn)	8.7
82	CCSc1cc(N2CCOCC2)nc(-c2ccccc2)n1	9.6
83	CC(=O)c1ccc(Oc2nc3c(c(=O)n(C)c(=O)n3C)n2C)cc1	14.6
84	O=S(=O)(Nc1ccc(-c2cn3ccccc3n2)cc1)c1ccccc1	22.9
85	CC(NS(=O)(=O)/C=C/c1ccccc1)C(=O)NCCc1ccc(S(N)(=O)=O)cc1 (stereo not drawn)	7.0
86	Cc1ccc(NC(=S)N2CCN(C)CC2)c(C)c1	11.6
87	COc1ccc(CNC(=O)COC(=O)CCC2CCCCC2)cc1	17.9
88	CCOC(=O)Cn1cncc1-c1ccc([N+](=O)[O-])cc1	8.1
89	COc1ccc2c(c1)c1ncn(Cc3ccccn3)c(=O)c1n2C	-0.6
90	COC(=O)/C=C/c1c(C)[nH]c(=O)[nH]c1=O	18.8
91	CC(C)N(Cc1ccccc1)C(=S)Nc1cccnc1	27.8
92	Cc1cccc(-n2cc(-c3ccc([N+](=O)[O-])cc3)[nH]c2=S)c1	18.6
93	CC(C)(CO)C(O)C(=O)NCCC#N (stereo not drawn)	4.4
94	CC(C)NS(=O)(=O)c1ccc(OCC(=O)Nc2ccc3c(c2)OCO3)cc1	23.2
95	S=c1[nH]c2ccc(Cl)cc2s1	24.9
96	CC(C)(C)SCCNC(=O)/C=C/c1ccc(F)cc1	7.2
97	COC(=O)CN1C(=O)N/C(=C/c2ccc(OC)cc2)C1=O	14.2
98	NC(=O)COC(=O)c1cc(-c2cccs2)nn1-c1ccccc1	12.9
99	CCCCC(=O)Nc1sc2c(c1C#N)CC(C)(C)OC2	14.2
100	CCOC(=O)N/N=C/c1cccc(Cl)c1Cl	10.3
101	Cc1cc(N/N=C/c2ccc3c(c2)OCO3)nc2ccccc12	21.8
102	CCOC(=O)c1ccc(N=C2SC(C(=O)NC)CC(=O)N2Cc2ccc(F)cc2)cc1 (stereo not drawn)	12.4
103	CC(C(=O)OCC(=O)Nc1cccc(S(=O)(=O)N2CCOCC2)c1)N1C(=O)c2ccccc2C1=O (stereo not drawn)	10.6
104	O=[N+]([O-])c1ccc(/C=N/n2c(CO)nc3ccccc32)s1	4.3

The results go on.
cpd	SMILES	Calb biofilm kill
105	NC(=O)CC[C@@H]1NC(=O)C(Cc2ccc(O)cc2)NC(=O)c2cc([N+](=O)[O-])cc(F)c2NCCC[C@@H](C(N)=O)NC1=O (stereo partly drawn)	8.1
106	CCOc1ccccc1C=Nc1ccccc1C(=O)Nc1ccccc1	13.4
107	C/C(=N\NC(=O)c1c(Cl)c(C)nn1C)c1ccc(NC(=O)c2ccncc2)cc1	11.2
108	Cc1cccc2sc(N(CCCN(C)C)C(=O)CCc3ccccc3)nc12	12.3
109	Nn1c(SCc2c(F)cccc2F)nnc1-c1ccccn1	19.5
110	Cc1nc2ccccc2n1CC(O)COC1CCCCC1 (stereo not drawn)	8.5
111	CC1=NC(C#N)=C(C#N)NC(C)(C)C1	10.1
112	OC(CNCC1CCCO1)Cn1c2ccc(Br)cc2c2cc(Br)ccc21 (stereo not drawn)	18.0
113	CN(C)C(=O)C#Cc1ccccc1	13.4
114	COC1C/C(=N\O)C2OC(c3ccccc3)OCC2O1 (stereo not drawn)	10.7
115	CCOC(=O)C(=O)NN=C(c1ccccc1)c1ccccc1	28.5
116	COc1ccc(-c2csc(N(CC3CCCO3)C(=O)c3ccc(C)cc3)n2)cc1 (stereo not drawn)	8.1
117	Cc1nc(N/C(N)=N/S(=O)(=O)c2ccc([N+](=O)[O-])cc2)nc2ccccc12	13.2
118	COc1ccc(OCc2cccc(C(=O)Nc3cc(C)on3)c2)cc1	18.1
119	COc1cc(NC(=O)c2cccs2)c(OC)cc1NC(=O)CCC(=O)Nc1ccc2ncccc2c1	47.8
120	CC(C(=O)NCCN1CCOCC1)c1ccc([N+](=O)[O-])cc1 (stereo not drawn)	19.2
121	COc1ccc(C2=COc3ccccc3C(=O)N2)cc1	13.6
122	Cc1ccc(CN=C2NC(=O)C(CC(=O)NCCc3ccccc3)S2)cc1 (stereo not drawn)	10.4
123	CCc1ccc(NC(=O)Cn2nc(C)c([N+](=O)[O-])c2C)cc1	17.6
124	CCN(CC)CCNCc1cc(Br)ccc1OCC(=O)NCc1ccccc1	11.0
125	C=CCN1c2ccccc2[C@]23C[C@@H](C(=O)OC)N(C(C)=O)C2=NC(C(=O)OC)=C(C(=O)OC)[C@H]13	18.9

This is a subset. The share of hits here may be higher or lower than overall.
